Source: PubChem BioAssay
Shh pathway inh: Hedgehog pathway signaling inhibitors, primary screen, luminescence, Shh-LIGHT2 cells, Gli-luciferase. inhibition, % (concentration not given with the values). 2.1% of 22,000 active. Shh-LIGHT2 Gli-luciferase reporter, 30 h;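 active means replicate mean of 65% or more; inconclusive means mean lower but half the replicates past it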;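 further: pathway switched on by Shh-conditioned medium diluted 1 in 25 in low serum; 100 nL library stock added to about 40 µL; 0% = median of neutral wells and 100% = positive control level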
YB-1 expr inh: inhibitors of YB-1 gene expression, primary screen, cell-based, fluorescence; 0.37% of 30,000 active; delta delta Cp (YB-1 minus CDIP) (test concentration not listed); U2OS, qRT-PCR YB-1 vs CDIP delta delta Cp, 16 h; active compounds read high; zero = DMSO, each unit about twofold;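 active means delta delta Cp rounded down to an integer at or above 3, about 3 SD of DMSO wells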;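 further: higher means less YB-1 transcript or more CDIP transcript relative to DMSO; stock transfer was 100 nL into about 100 µL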
PD-1 reverse act: activators reversing PD-1 mediated T-cell inhibition, primary screen, luminescence, primary human CD4 T cells, PD-L1 beads | CellTiter-Glo 96 h | activation, % (no concentration beside the values) | 29,000 tested, under 10 active;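 active means replicate mean of 50% or more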;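 further: 0% = median vehicle wells and 100% = positive control; 100 nL library stock added to about 50 µL; numbers are from one replicate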
MITF inhib: inhibitors of MITF, primary screen, MITF inhibitor project, cell-based, luminescence; 0.28% of 37,000 active; inhibition, % (no concentration beside the values); TRPM1 promoter luciferase, 24 h;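 active means most replicates at 85% or more, or half of them and the mean; inconclusive means half reach 85% but not the mean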;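 further: human melanocyte line stably carrying TRPM1 promoter luciferase reporter; 0% = vehicle wells and 100% = a positive control; the first replicate is given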
The depositor's hits bear a star; ? = inconclusive; / = not tested or not shown. Some of the compounds tested; count on the stated rates, not on these rows.

SMILES	Shh pathway inh	YB-1 expr inh	PD-1 reverse act	MITF inhib
C[C@H]1CN([C@@H](C)CO)C(=O)c2cc(NC(=O)Cn3cnnn3)ccc2O[C@@H]1CN(C)C(=O)Nc1ccc(C(F)(F)F)cc1	-30	-0.39	1.4	1
C[C@H]1CN([C@@H](C)CO)C(=O)c2cc(NC(=O)CCCN(C)C)ccc2O[C@H]1CN(C)Cc1ccc(C(F)(F)F)cc1	/	-0.023	3.2	-8
COc1ccc(S(=O)(=O)Nc2ccc3c(c2)C(=O)N([C@@H](C)CO)C[C@H](C)[C@H](CN(C)S(C)(=O)=O)O3)cc1	/	0.56	2.5	-13
C[C@@H]1CN([C@@H](C)CO)C(=O)c2cc(NC(=O)c3ccncc3)ccc2O[C@H]1CN(C)C	-21	-0.48	1.4	-1
C[C@@H]1CN([C@H](C)CO)C(=O)Cc2cc(NS(=O)(=O)c3cn(C)cn3)ccc2O[C@H]1CN(C)C(=O)Nc1ccccc1	26	-0.041	2.8	-11
COc1ccc(CN(C)C[C@@H]2Oc3ccc(NC(=O)C4CC4)cc3CC(=O)N([C@@H](C)CO)C[C@@H]2C)cc1	/	-0.032	/	-9
C[C@H]1CN([C@@H](C)CO)C(=O)Cc2cc(NC(=O)CCC(F)(F)F)ccc2O[C@@H]1CN(C)C(=O)Nc1cccc2ccccc12	-17	0.12	/	-7
C[C@H]1CN([C@@H](C)CO)C(=O)c2cc(NC(=O)NC3CCCCC3)ccc2O[C@@H]1CN(C)C(=O)Nc1cccc2ccccc12	/	-0.1	-2.3	10
Cc1nc(-c2ccccc2)sc1C(=O)C1C(=O)C(=O)N(CCCN2CCOCC2)C1c1cccs1 (stereo not drawn)	/	/	1.5	7
C[C@H]1CN([C@@H](C)CO)C(=O)c2cc(NC(=O)CCCN(C)C)ccc2O[C@@H]1CN(C)CC1CCCCC1	/	-0.068	1.0	-11
CC12CCC(C(=O)NCCN3CCOCC3)(OC1=O)C2(C)C (stereo not drawn)	/	/	0.8	-14
C[C@H]1CN([C@@H](C)CO)C(=O)c2cccc(NC(=O)c3ccncc3)c2O[C@@H]1CN(C)CC1CC1	-8	-0.031	-0.3	-10
C[C@H]1CN([C@@H](C)CO)C(=O)c2cc(NS(C)(=O)=O)ccc2O[C@@H]1CN(C)S(=O)(=O)c1cccs1	-15	-0.032	1.1	-7
Cc1ccc(-c2nnc(SCC(=O)Nc3ccccc3C(C)(C)C)n2C)cc1	/	/	0.9	8
C[C@@H]1CN([C@@H](C)CO)C(=O)Cc2cc(NS(=O)(=O)c3cn(C)cn3)ccc2O[C@@H]1CN(C)Cc1ccc(C(F)(F)F)cc1	-12	0.011	1.7	-28
CC(C)NC(=O)N(C)C[C@@H]1OCCCC[C@@H](C)Oc2ccc(NC(=O)Nc3ccc(F)cc3)cc2C(=O)N([C@H](C)CO)C[C@@H]1C	-15	-8.5	1.4	-6
Cc1cc(C(=O)Nc2cccc3c2O[C@@H](CN(C)S(=O)(=O)c2cn(C)cn2)[C@@H](C)CN([C@H](C)CO)C3=O)n(C)n1	24	0.17	/	-11
CC(C)(O)CC[C@@H](O)[C@](C)(O)[C@H]1CC[C@@]2(O)C3=CC(=O)[C@@H]4C[C@@H](O)[C@@H](O)C[C@]4(C)C3CC[C@]12C (stereo partly drawn)	-42	-0.48	1.2	-12
C[C@@H]1CN([C@H](C)CO)C(=O)c2cccc(NC(=O)Nc3ccc(F)cc3)c2O[C@@H]1CN(C)C(=O)Nc1ccc2c(c1)OCO2	-3	0.22	/	-9
CCn1c(SCC(=O)Nc2ccc(F)cc2F)nnc1-c1ccco1	/	/	0.8	-9
C[C@H]1CN([C@@H](C)CO)C(=O)c2cccc(NC(=O)C3CCCCC3)c2O[C@@H]1CN(C)Cc1ccc(-c2ccccc2)cc1	30	-0.15	3.3	-4
C[C@@H]1CCCCO[C@@H](CN(C)S(C)(=O)=O)[C@@H](C)CN([C@H](C)CO)C(=O)c2cc(NS(=O)(=O)c3cccs3)ccc2O1	-16	0.16	2.1	16
Cn1c(CN2CCOCC2)nnc1SCC(=O)N1CCc2ccccc21	/	/	1.5	-9
C[C@@H]1CN([C@H](C)CO)C(=O)c2cc(N(C)C)ccc2O[C@H]1CN(C)Cc1ccncc1	1	0.38	/	2
C[C@H]1CN([C@@H](C)CO)C(=O)c2cc(NC(=O)Nc3ccc4c(c3)OCO4)ccc2O[C@@H]1CN(C)C(=O)Nc1ccc2c(c1)OCO2	-7	0.13	1.6	-2

2 records picked at random from the list so far:
SMILES	Shh pathway inh	YB-1 expr inh	PD-1 reverse act	MITF inhib
C[C@H]1CN([C@@H](C)CO)C(=O)Cc2cc(NC(=O)CCC(F)(F)F)ccc2O[C@@H]1CN(C)C(=O)Nc1cccc2ccccc12	-17	0.12	/	-7
C[C@@H]1CN([C@H](C)CO)C(=O)c2cc(N(C)C)ccc2O[C@H]1CN(C)Cc1ccncc1	1	0.38	/	2

The main list resumes; the 4 compounds before the break are reprinted first.
SMILES	Shh pathway inh	YB-1 expr inh	PD-1 reverse act	MITF inhib
C[C@@H]1CCCCO[C@@H](CN(C)S(C)(=O)=O)[C@@H](C)CN([C@H](C)CO)C(=O)c2cc(NS(=O)(=O)c3cccs3)ccc2O1	-16	0.16	2.1	16
Cn1c(CN2CCOCC2)nnc1SCC(=O)N1CCc2ccccc21	/	/	1.5	-9
C[C@@H]1CN([C@H](C)CO)C(=O)c2cc(N(C)C)ccc2O[C@H]1CN(C)Cc1ccncc1	1	0.38	/	2
C[C@H]1CN([C@@H](C)CO)C(=O)c2cc(NC(=O)Nc3ccc4c(c3)OCO4)ccc2O[C@@H]1CN(C)C(=O)Nc1ccc2c(c1)OCO2	-7	0.13	1.6	-2
C[C@H](CO)N1C[C@H](C)[C@@H](CN(C)CC2CCCCC2)Oc2ccc(NS(=O)(=O)c3ccc(Cl)cc3)cc2C1=O	15	-0.34	/	3
C[C@H](CO)N1C[C@H](C)[C@@H](CN(C)C(=O)NC2CCCCC2)Oc2ccc(NS(=O)(=O)c3ccc(F)cc3)cc2C1=O	-10	-0.1	-0.8	7
C[C@@H]1CN([C@@H](C)CO)C(=O)Cc2cc(NC(=O)C3CCCCC3)ccc2O[C@@H]1CN(C)C(=O)NC1CCCCC1	?	0.18	1.8	-9
CC(C)NC(=O)N(C)C[C@@H]1Oc2c(cccc2N(C)C)C(=O)N([C@@H](C)CO)C[C@H]1C	-26	0.65	0.9	2
CNC[C@H]1Oc2ccc(NC(=O)NC(C)C)cc2C(=O)N([C@H](C)CO)C[C@@H]1C	/	-0.2	1.9	1
COc1cc(NC(=O)Cn2nc(C(F)(F)F)c(Cl)c2C)cc([N+](=O)[O-])c1	/	/	-6.3	58
C[C@@H]1CN([C@H](C)CO)C(=O)c2cc(NS(=O)(=O)c3ccccc3)ccc2O[C@H]1CN(C)CC1CC1	-5	-0.29	0.9	9
O=C(O)c1ccccc1-c1ccccc1C(=O)NCc1ccco1	/	/	0.7	0
C[C@H]1CN([C@@H](C)CO)C(=O)c2cc(NC(=O)CCC(F)(F)F)ccc2O[C@H]1CN(C)S(=O)(=O)c1ccc(F)cc1	-21	-0.04	1.4	0
Cc1ccccc1NC(=O)CN(c1ccc(Br)cc1)S(C)(=O)=O	/	/	-0.6	-14
C[C@H]1CN([C@@H](C)CO)C(=O)c2cccc(NC(=O)c3cnccn3)c2O[C@H]1CN(C)Cc1ccc(C(=O)Nc2ccccc2N)cc1	/	-0.5	-5.9	28
C[C@@H]1CN([C@H](C)CO)C(=O)Cc2cc(NS(=O)(=O)c3ccc(Cl)cc3)ccc2O[C@@H]1CN(C)S(C)(=O)=O	-26	0.08	2.0	-3
COc1ccc(S(=O)(=O)N(CC(N)=O)c2ccc(C)cc2)cc1Br	/	/	-1.7	-7
O=C(/C=C/c1c[nH]c2ccccc12)N1CCCCC1	/	0.29	0.0	-25
O=C(CSc1nc2sc3c(c2c(=O)n1Cc1ccccc1)CCCCC3)c1ccccc1	/	/	-2.5	4
CC[N+](C)(CC)CCOC(=O)C1c2ccccc2Oc2ccccc21	-17	0.027	/	-3
COc1ccc(Cl)cc1N(CC(=O)N1CCN(c2cccc(Cl)c2)CC1)S(C)(=O)=O	/	/	-0.4	-14
Cc1ccc(S(=O)(=O)N(C)C[C@H]2Oc3ccc(NC(=O)Nc4ccc(F)cc4)cc3CC(=O)N([C@@H](C)CO)C[C@H]2C)cc1	3	0.09	-2.1	15
Cc1ccc(S(=O)(=O)Nc2ccc3c(c2)CC(=O)N([C@@H](C)CO)C[C@H](C)[C@@H](CN(C)Cc2ccc(Cl)c(Cl)c2)O3)cc1	?	0.57	1.4	25
COc1ccc(OC)c(NC(=O)CSc2nnc(-c3ccc(F)cc3)n2C)c1	/	/	-0.8	-16
FC(F)(F)c1nc2ccc(Cl)cc2[nH]1	49	-0.03	-1.8	67
C[C@H]1CN([C@@H](C)CO)C(=O)c2cc(NS(C)(=O)=O)ccc2O[C@@H]1CN(C)Cc1ccncc1	-15	0.32	-0.1	-20
CCOC(=O)OC(C)OC(=O)[C@@H]1N2C(=O)[C@@H](NC(=O)[C@H](N)c3ccccc3)[C@H]2SC1(C)C (stereo partly drawn)	3	-0.2	/	-5
C[C@H]1CN([C@@H](C)CO)C(=O)c2cc(NS(=O)(=O)c3cn(C)cn3)ccc2O[C@@H]1CN(C)S(=O)(=O)c1ccc(Cl)cc1	-15	0.2	0.1	3
C[C@@H]1CN([C@@H](C)CO)C(=O)c2cccc(NC(=O)Nc3ccc4c(c3)OCO4)c2O[C@H]1CN(C)C(=O)Nc1ccc2c(c1)OCO2	24	0.029	/	-11

Going on with the list:
SMILES	Shh pathway inh	YB-1 expr inh	PD-1 reverse act	MITF inhib
C[C@@H]1CN([C@@H](C)CO)C(=O)c2cc(NC(=O)Cc3ccccc3)ccc2O[C@H]1CN(C)C	/	-0.23	-0.8	-8
Cc1cc(C)nc(SCC(=O)c2cc3ccccc3oc2=O)n1	/	/	0.7	-10
COc1ccc(NC(=O)N(C)C[C@H]2Oc3ccc(N(C)C)cc3CC(=O)N([C@@H](C)CO)C[C@H]2C)cc1	39	0.019	1.8	-1
Cc1ccc(S(=O)(=O)Nc2cccc3c2O[C@@H](CN(C)S(=O)(=O)c2ccccc2)[C@H](C)CN([C@@H](C)CO)C3=O)cc1	13	0.62	0.6	6
C[C@@H]1CN([C@@H](C)CO)C(=O)c2cc(NC(=O)Nc3ccc(F)cc3)ccc2O[C@H]1CN(C)C(=O)NC1CCCCC1	/	-0.073	0.7	6
C[C@@H]1CN([C@@H](C)CO)C(=O)c2cccc(NC(=O)c3ccc(-c4nccs4)cc3)c2O[C@H]1CN(C)S(=O)(=O)c1cn(C)cn1	-2	0.17	2.0	-16
C[C@@H]1CN([C@@H](C)CO)C(=O)c2cccc(NC(=O)C3CCCCC3)c2O[C@H]1CN(C)S(=O)(=O)c1cn(C)cn1	-45	-0.44	-1.1	7
C[C@@H]1CN([C@@H](C)CO)C(=O)c2cc(NC(=O)CCCN(C)C)ccc2O[C@@H]1CN(C)Cc1ccc(Oc2ccccc2)cc1	-10	0.16	0.7	2
CCC(=O)Nc1ccc(S(=O)(=O)Nc2nccc(/C=C/c3ccccc3Cl)n2)cc1	/	/	2.0	-5
C[C@H]1CN([C@@H](C)CO)C(=O)c2cccc(NS(=O)(=O)c3ccc(Cl)cc3)c2O[C@H]1CN(C)S(=O)(=O)c1cn(C)cn1	-22	-0.16	-0.5	0
COc1ccc(S(=O)(=O)N2CCN(CCO)CC2)cc1-c1nnc2c3ccccc3c(C)nn12	/	/	0.4	-14
CCC(C)C1NC(=O)c2c1n(C)c1ccccc1c2=O (stereo not drawn)	-4	0.25	0.1	6
CCN1C(=O)/C(=C/C=C2\Sc3ccc(Cl)cc3N2C)SC1=S	23	-0.31	0.2	-24
C[C@@H]1CN([C@@H](C)CO)C(=O)c2cc(N(C)C)ccc2O[C@H]1CN(C)Cc1ccc2c(c1)OCO2	-18	0.0091	/	0
C[C@@H]1CN([C@H](C)CO)C(=O)c2cc(NC(=O)Nc3cccc4ccccc34)ccc2O[C@@H]1CN(C)Cc1ccc(Oc2ccccc2)cc1	17	0.16	/	15
Cn1c(SCC(=O)Nc2ccc(Br)cc2)nnc1-c1ccccn1	/	/	1.9	5
C[C@@H]1CCCCO[C@@H](CN(C)Cc2ccc(C(=O)Nc3ccccc3N)cc2)[C@@H](C)CN([C@H](C)CO)C(=O)c2cc(NC(=O)Cc3ccccc3)ccc2O1	/	-0.32	0.0	-3
Cc1noc(C)c1S(=O)(=O)Nc1ccc2c(c1)CC(=O)N([C@@H](C)CO)C[C@@H](C)[C@@H](CN(C)Cc1ccc(C(=O)Nc3ccccc3N)cc1)O2	/	0.37	-1.5	10
O=C1C(=O)N(Cc2cccnc2)C(c2ccccn2)C1C(=O)c1cccs1 (stereo not drawn)	/	/	0.5	-2
C[C@@H]1CN([C@@H](C)CO)C(=O)c2cccc(NS(=O)(=O)c3ccc(F)cc3)c2O[C@H]1CN(C)S(=O)(=O)c1ccccc1	-69	-0.34	1.1	-5
C[C@@H]1CN([C@H](C)CO)C(=O)c2cccc(NC(=O)NC3CCCCC3)c2O[C@@H]1CN(C)C(=O)NC1CCCCC1	-7	0.21	-0.5	11
